Screens (PubChem BioAssay)
MT1-MMP act inh: blockers of MT1-MMP proenzyme processing, primary screen, HT1080 RFP-PRO-GFP cells, GFP/RFP fluorescence; actives 0.061% (n = 360,000); GFP/RFP ratio fluorescence, overnight; percent of plate control window, DMSO zero; GFP/RFP ratio change, % at 20 µM;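 active = GFP/RFP ratio change of at least 30% with cell ATP level not reduced by more than half and red fluorescence within 50% of control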; note: strong numbers were not always called active
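Material: RFP-PRO-GFP reporter HT1080 cells. Dosing: single-point 20 µM compound, 1% DMSO. Controls: DMSO and RFP-L50D-GFP cell wells. Timing: cells overnight before dosing, compound overnight, 37 °C, 5% CO2. Measure: GFP/RFP fluorescence ratio.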
Env fusion inh: inhibitors of HIV-1 Env-driven cell-cell fusion, primary screen, HeLa-JRFL effector, CEM21 target cells, luciferase. AID 651610, 2012. actives 1.1% (n = 360,000). inhibition, % at 12.3 µM;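 active = mean replicate inhibition score of at least 50 and every replicate individually at or above 50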;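 note: 0% = plate neutral controls and 100% = maraviroc near 300 nM; one replicate is shown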
MT1-MMP act inh RFP: further read-out of MT1-MMP act inh, marked with its call; RFP signal change, %; measured here: RFP expression control read;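 0 = vehicle wells; hits needed this value within 50% of zero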
The depositor's hits bear a star.

Values in the order: MT1-MMP act inh, MT1-MMP act inh RFP, Env fusion inh
1: Cc1cccc(C)c1NC(=O)C1c2ccccc2OCC(=O)N1CCc1ccccc1 (stereo unspecified)
  0, 8, -104
2: C[C@@H]1COc2cc(N3CCN(Cc4ccccc4F)CC3)ccc2S(=O)(=O)N1
  9, 2, -130
3: CN(C)c1ccc(Cc2cc3c(O)ccc(O)c3cc(Cc3ccc(N(C)C)cc3)c2=O)cc1
  33*, 28*, -6
4: CC(CCc1ccccn1)C(=O)c1ccccc1 (stereo unspecified)
  0, -1, 9
5: CCN(C)C1CN(Cc2cn(Cc3ccc(C)cc3)nn2)S(=O)(=O)C1 (stereo unspecified)
  6, 8, -20
6: Cc1ccccc1S(=O)(=O)NC(=O)C1(C)CCN1C(=O)CCc1cccs1 (stereo unspecified)
  3, 5, 12

In the list so far, 3 have sulfur:
Values in the order: MT1-MMP act inh, MT1-MMP act inh RFP, Env fusion inh
2: C[C@@H]1COc2cc(N3CCN(Cc4ccccc4F)CC3)ccc2S(=O)(=O)N1
  9, 2, -130
5: CCN(C)C1CN(Cc2cn(Cc3ccc(C)cc3)nn2)S(=O)(=O)C1 (stereo unspecified)
  6, 8, -20
6: Cc1ccccc1S(=O)(=O)NC(=O)C1(C)CCN1C(=O)CCc1cccs1 (stereo unspecified)
  3, 5, 12

Part of the list above, limited to Env fusion inh and MT1-MMP act inh RFP:
entry | Molecule | Env fusion inh | MT1-MMP act inh RFP
1 | Cc1cccc(C)c1NC(=O)C1c2ccccc2OCC(=O)N1CCc1ccccc1 (stereo unspecified) | -104 | 8
3 | CN(C)c1ccc(Cc2cc3c(O)ccc(O)c3cc(Cc3ccc(N(C)C)cc3)c2=O)cc1 | -6 | 28*

These rows are one share of the data. The share of hits here may be higher or lower than overall.
